WNV protease inh – inhibitors of West Nile virus NS2B-NS3 protease; P06935; z-score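 (tested at a level between 10 and 100 µM)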; AID 577; WNV NS2B-NS3 protease, fluorogenic substrate Ex360/Em465; stronger effect = lower value; hit rate 0.18% among 65,000;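 active means z-score at -3 or under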;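 further: score is relative to mean and spread of the compound wells of a plate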
Target sequence (P06935 1371-1501 limits assumed): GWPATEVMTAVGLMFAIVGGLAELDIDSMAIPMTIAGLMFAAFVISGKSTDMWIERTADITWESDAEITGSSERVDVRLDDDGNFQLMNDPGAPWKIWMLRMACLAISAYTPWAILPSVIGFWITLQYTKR
Target sequence (P06935 1502-1679 limits assumed): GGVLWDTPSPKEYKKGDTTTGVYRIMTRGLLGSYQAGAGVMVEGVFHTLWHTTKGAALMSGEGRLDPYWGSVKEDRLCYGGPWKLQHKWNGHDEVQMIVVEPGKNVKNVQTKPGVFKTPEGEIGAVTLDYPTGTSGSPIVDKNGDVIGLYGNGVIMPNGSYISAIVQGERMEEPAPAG
MT1-MMP reporter – MT1-MMP gene expression reporter suppression – cell-based, luciferase reporter, luminescence (AID 618); MT1-MMP promoter luciferase reporter cells, luminescence; calls from a first round at 10 µM; hits with a dose series show EC50 in µM; hit rate 0.62% among 87,000;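 active means over half of the reporter light lost at 10 µM or EC50 under 50 µM; inactive means the rest and hits that failed the dose series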;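 further: actives suppress MT1-MMP promoter-driven transcription so potencies describe inhibitors; HT1080 fibrosarcoma cells; overnight exposure; toxic or luciferase-blocking compounds were not removed from the actives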
Hsc70 – small molecules displacing fluorescent ligand from Hsc70 – biochemical, fluorescence polarization, primary screen (AID 568); Hsc70 fluorescence polarization, probe displacement; higher % means a stronger effect; strong numbers were not always called active; displacement, % at 20 µM; hits with a dose series show IC50 in µM; 83,000 tested, under 10 active;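 active means displacement above 50% without optical interference and an IC50 on retest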;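 further: ATPase domain with a fluorescein-tagged ATP probe; 0% = vehicle and 100% = excess ADP; read after one hour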
Active calls of the source: *; i = inactive; x = no result given; + = active, no number.

Values run as follows: WNV protease inh | MT1-MMP reporter | Hsc70
> COc1ccc(-c2noc(CN(C)S(=O)(=O)c3ccc(Cl)cc3)n2)cc1OC
    0.37 | i | 3.8%
> COc1ccccc1N1CCN(C(c2ccc(C)cc2)c2nnnn2C(C)C)CC1 (centres undefined)
    -0.54 | i | -2.4%
> CCCC(=O)c1cc(-c2nc3ccccc3n2C)n(C)c1
    -0.97 | i | 2.6%
> Cc1cc(C)n(-c2nc3ccccc3c(=O)n2OC2CCCCC2)n1
    -0.18 | i | -0.2%
> Nn1c(SCC(=O)NC(=O)NC2CCCC2)nnc1-c1ccccc1F
    -0.11 | i | -1.0%
> Cc1cc(Nc2c(C)n(C)n(-c3ccccc3)c2=O)n2c(nc3ccccc32)c1C#N
    x | i | 4.2%
> COc1ccc(C)cc1NC(=O)CN1CCN(S(=O)(=O)c2ccc(C(C)C)cc2)CC1
    -0.01 | i | -0.5%
> Cc1ccc(C2NC(=O)c3c(sc4c3CCN(C)C4)N2)s1 (centres undefined)
    -0.49 | i | -5.4%
> CC1(C)CC2CC(C)(CN2C(=O)COC(=O)c2ccc(Cl)cc2N)C1 (centres undefined)
    0.63 | i | -3.1%
> CCN(CC)C(=O)CN1C(=O)C2CC=C(Cl)CC2C1=O (centres undefined)
    -0.61 | i | 23%
> CCc1cc2c(NCc3ccco3)ncnc2s1
    0.17 | i | -0.9%
> O=C(Nc1ccc(Cl)cc1)N1CCC(c2nc(-c3ccc(F)cc3)no2)CC1
    1.2 | i | -2.6%
> CCOc1ccc2nc(NCCNS(=O)(=O)c3ccccc3)c(C#N)cc2c1
    -0.37 | i | 1.0%
> Cc1onc(-c2c(Cl)cccc2Cl)c1C(=O)n1nnc2ccccc21
    x | i | -1.9%
> CCOC(=O)c1cc(NC(=O)c2cc(C)on2)cc(C(=O)OCC)c1
    0.16 | i | -3.8%
> CCN1C(=O)OC2(CCCCC2)C1(C)O (centres undefined)
    -0.36 | i | 2.7%
> CC(C)C(=O)N1CCN(c2nc(-c3ccccc3)c3c(c2C#N)CC(C)(C)OC3)CC1
    0.46 | i | -1.2%
> Cc1ccc(-c2nc(CS(=O)CC(=O)N3CCN(c4ncccn4)CC3)c(C)o2)cc1 (centres undefined)
    -0.06 | i | 0.9%
> CCOC(=O)NC1C=CS(=O)(=O)C1 (centres undefined)
    1.8 | i | -5.2%
> CC(C)c1ccc(N2C(=O)[C@@H]3Cc4ccccc4CN3C2=O)cc1
    0.04 | i | 1.0%
> O=C(c1ccc2snnc2c1)N1CCN(c2ccccn2)CC1
    x | i | 3.2%
> CCn1nc(C(=O)Nc2ccc(S(=O)(=O)Nc3nccs3)cc2)c2ccccc2c1=O
    0.52 | i | -3.3%
> CCOC(=O)c1c(Nc2ccccc2N)cc(C)nc1C
    -0.41 | i | 0.1%
> O=C(CCSc1nnc2ccc3ccccc3n12)Nc1ccc(F)cc1
    x | i | -0.7%
> C/C(=N/NS(C)(=O)=O)c1ccc2ccccc2c1
    x | i | 4.4%
> Cn1c(=O)c2c(nc(Oc3ccc4c(c3)OCO4)n2Cc2ccc(Cl)cc2)n(C)c1=O
    -0.22 | i | -4.4%
> CC(=O)Nc1nonc1NC(=O)c1ccc(C(C)(C)C)cc1
    x | i | -1.5%
> Cc1ccc2oc(=O)c3cnn(CC(=O)NCCC(C)C)c3c2c1
    0.13 | i | 1.0%
> C(=N\c1nccs1)/Nc1nccs1
    0.91 | i | 10%
> Nc1nc(Nc2ccccc2)nc2ccccc12
    -0.16 | + | -1.6%
> Cc1n[nH]c(C)c1SCC(=O)Nc1ccc(F)cc1
    -1.4 | i | 4.2%
> CCN(C(=O)Cn1c(=O)oc2ccccc21)c1cccc(C(F)(F)F)c1
    0.25 | i | 1.7%
> CCOc1ccc2nc3sc(C(=O)N4CCN(C)CC4)c(N)c3cc2c1
    -1.3 | i | -5.5%
> Cc1cc(C)nc(N2CCCC(C(=O)NCC(c3ccccc3)c3ccccc3)C2)n1 (centres undefined)
    x | i | 0.8%
> C=CCn1c(C)c(C(C)=O)c(N2CCOCC2)nc1=S
    -0.44 | i | -0.7%
> Cc1nc(N2CCCCC2)c2ccsc2n1
    x | i | 3.7%
> CC(C)CCNC(=O)CCCOc1ccccc1
    x | i | -0.4%
> COCCCNC(=O)Cn1nnc(-c2ccc(NC(=O)c3ccccc3F)cc2)n1
    x | i | -1.6%
> Cc1nc2nc(C)n(-c3ccccc3)c2s1
    -1.7 | i | 3.3%
> COc1cc(C)nc(NCc2ccccc2)n1
    -1.5 | i | 0.4%
> COC(=O)C1C(c2ccccc2)C(C(=O)N2CCN(C)CC2)C1c1ccccc1 (centres undefined)
    -0.87 | i | -1.2%
> O=C(OCc1ccc(COC(=O)c2ccccn2)cc1)c1ccccn1
    x | i | -7.2%
> COc1ccc(-c2noc(COc3ccccc3OC)n2)cc1OC
    -1.8 | i | 2.9%
> CCN1CCN(CCNC(=O)c2ccc(CS(=O)(=O)c3c(Cl)cccc3Cl)o2)CC1
    -0.63 | i | 2.9%
> COc1ccc(CNC(=O)C(c2ccco2)N(Cc2cccs2)C(=O)Cc2cccs2)cc1 (centres undefined)
    -0.55 | i | -3.9%
> C=CCN1C(=O)C2C(C(=O)NC)C3(C)C=CC2(O3)C1C(=O)NCc1ccc(OC)cc1 (centres undefined)
    0.15 | i | -0.5%
> OCc1nc2ccccc2n1CCCOc1ccccc1
    0.5 | i | 5.8%
> Cc1c(NC(=O)Nc2ccc(Cl)c(Cl)c2)sc(=S)n1C
    x | i | -2.6%
> COCCn1c(-c2ccc(OC)cc2)cnc1SCC(=O)Nc1cc(C)on1
    0.2 | i | 1.8%
> Cc1nc2nc(COc3ccccc3)nn2c(C)c1Cl
    0.42 | i | 4.1%
> Cc1ccc(-c2nn3c(C)nnc3s2)cc1NC(=O)c1ccc(Br)o1
    -0.75 | i | 1.6%
> COC(=O)c1cc2oc(C)cc2n1CC(=O)N1CCCc2ccccc21
    -0.92 | i | -7.3%
> Cn1cnc([N+](=O)[O-])c1Nc1cccc(O)c1
    x | i | -3.2%
> COc1cc(C)ccc1OCCCON1C(=O)CCC1=O
    x | i | -1.6%
> CC(=O)Nc1ccc(S(=O)(=O)N(C)c2ccc(O)cc2)cc1
    1.4 | i | -5.6%
> Cn1nc(-c2ccc(N3CCOCC3)c(NS(=O)(=O)c3ccccc3)c2)c2ccccc2c1=O
    -1 | i | -1.5%
> COC(=O)CSc1nc2cc(Cl)ccc2c(=O)n1C1CCCC1
    -1.8 | i | 2.8%
> CCOc1ccc(CN(C(=O)c2oc3ccccc3c2C)C2CCS(=O)(=O)C2)cc1 (centres undefined)
    x | i | 2.7%
> COc1ccccc1CNC(=O)COC(=O)c1ccc(NC(N)=O)cc1
    -0.02 | i | -5.0%
> COc1ccc(NC2=NCCC(=O)N2Cc2cccs2)cc1
    -0.56 | i | 1.9%

Taken from above, 3 compounds:
Values run as follows: WNV protease inh | MT1-MMP reporter | Hsc70
> Cc1c(NC(=O)Nc2ccc(Cl)c(Cl)c2)sc(=S)n1C
    x | i | -2.6%
> COCCn1c(-c2ccc(OC)cc2)cnc1SCC(=O)Nc1cc(C)on1
    0.2 | i | 1.8%
> Cc1nc2nc(COc3ccccc3)nn2c(C)c1Cl
    0.42 | i | 4.1%

(cont.)
Values run as follows: WNV protease inh | MT1-MMP reporter | Hsc70
> COc1ccc2[nH]c(=O)c(CN(Cc3ccc(C)cc3)Cc3nnnn3CC3CCCO3)cc2c1 (centres undefined)
    -0.63 | i | 2.1%
> COc1ccc(-c2csc(NC(=O)C3CCCO3)n2)cc1 (centres undefined)
    -0.56 | i | 0.4%
> CC1(C)Cc2c(sc(/N=C/N3CCCCC3)c2C#N)C(C)(C)N1
    x | i | 3.3%
> c1coc(C2Nc3ccccc3C3OCCC23)c1 (centres undefined)
    x | i | -2.7%
> Cc1ccc(C(C)NC(=O)c2cc(C)oc2C)cc1 (centres undefined)
    1.6 | i | 3.9%
> COc1ccc(CNC(=O)CSc2nnc(-c3ccc(NC(C)=O)cc3)n2C)cc1
    -0.36 | i | 0.5%
> CC(=O)N1CCc2cc(S(=O)(=O)CCC(=O)N3CCN(C(=O)c4ccco4)CC3)ccc21
    -0.11 | i | 4.7%
> COc1ccc(CCNC(=O)CCNS(=O)(=O)c2ccc3c(c2)CCN3C(C)=O)cc1OC
    -0.68 | i | 3.9%
> COc1ccc(N2CSC3=C(C#N)C(c4cc(OC)c(OC)cc4OC)CC(=O)N3C2)c(OC)c1 (centres undefined)
    0.28 | i | -8.1%
> O=C(c1ccco1)[C@@H]1[C@@H]2C(=O)N(c3ccc(F)cc3)C(=O)[C@@H]2C2c3ccccc3C=CN21 (some centres undefined)
    -0.74 | i | 37%
> COc1ccccc1NC(=O)CN1CCCCC1
    -0.19 | i | 2.1%
> CC(C)(C)NC(=O)Cn1nnc(-c2ccccc2NC(=O)c2cnccn2)n1
    x | i | -0.2%
> Cc1cc2c(cc(C(=O)N3CCC(C(=O)NC4CCCC4)CC3)n2Cc2c(F)cccc2Cl)o1
    1.6 | i | 0.0%
> CCOC(=O)C1CCN(C(=O)CN(C)S(=O)(=O)c2cc(C)ccc2OC)CC1
    -0.58 | i | 1.5%
> COc1ccc(OC)c(NC(=O)Cc2coc3cc(C)cc(C)c23)c1
    x | i | 4.2%
> CC1(C(=O)NCc2cccnc2)CCC(=O)N1Cc1cccs1 (centres undefined)
    -0.76 | i | 0.7%
> N#Cc1ccc2ccn(CC(=O)N3CCCc4ccccc43)c2c1
    -0.25 | i | -1.5%
> NC(=O)Cn1c(=O)n(CCc2ccccc2)c(=O)c2c3c(sc21)CCCC3
    x | i | -2.2%
> O=C(O)Cn1nnnc1-c1ccc(F)cc1
    -2.1 | i | -3.3%
> Cc1[nH]c2ccc(Br)cc2c(=O)c1CN1CCOCC1
    0.25 | i | 1.2%
> CCn1c(COc2ccc(Cl)cc2)nnc1SCC(=O)Nc1ccc2c(c1)OCCO2
    -0.43 | i | -0.7%
> N=c1c2c(-c3ccccc3)c(-c3ccccc3)n(Cc3ccco3)c2ncn1CCN1CCOCC1
    1.7 | i | -9.6%
> O=C(Nc1cccc(C(=O)N2CCOCC2)c1)c1ncn[nH]1
    1.2 | i | 2.6%
> CC1CCN(CCCNC(=O)c2n[nH]c(=O)c3ccccc23)CC1
    -0.34 | i | -4.0%
> CCNC(=O)Cc1ccc(Br)cc1
    x | i | 2.6%
> CCn1nnnc1SCC(=O)N1CCOCC1
    0.94 | i | 1.4%
> O=C1NC(=S)S/C1=C1\Sc2ccccc2N1CCCS(=O)(=O)O
    -0.46 | i | -6.8%
> O=C(Nc1ccccc1)NC1(C(=O)NCc2ccco2)CCCCC1
    0.23 | i | 0.3%
> O=C(CCc1ccccc1)Nc1nc2ccc(S(=O)(=O)N3CCOCC3)cc2s1
    0.88 | i | -8.1%
> O=C(O)COc1ccc(-c2nnn(Cc3ccccc3F)n2)cc1
    -0.94 | i | 2.0%

Quoted from the listing.
In WNV protease inh, `O=C(O)Cn1nnnc1-c1ccc(F)cc1` is listed with -2.1
In Hsc70, `N=c1c2c(-c3ccccc3)c(-c3ccccc3)n(Cc3ccco3)c2ncn1CCN1CCOCC1` is listed with -9.6%
In Hsc70, `CC1CCN(CCCNC(=O)c2n[nH]c(=O)c3ccccc23)CC1` is listed with -4.0%

(more compounds)
Values run as follows: WNV protease inh | MT1-MMP reporter | Hsc70
> CC(C(N)=O)N1C(=O)C2C3C=CC(C3)C2C1=O (centres undefined)
    -0.56 | i | 0.9%
> Cc1ccc(N2C(=O)CSC23C(=O)Nc2ccccc23)cc1 (centres undefined)
    0.66 | i | 2.5%
> CCOC(=O)c1sc2nc(C)cc(C)c2c1NC(=O)c1ccco1
    -0.75 | i | -2.5%
> Oc1c(C(c2ccccn2)N2CCOCC2)ccc2cccnc12 (centres undefined)
    -0.11 | i | -3.5%
> C=CCN1CCN(C(c2ccc(OC)c(OC)c2)c2nnnn2C(C)(C)C)CC1 (centres undefined)
    0.6 | i | -4.3%
> CC(C)(C)C1CCc2c(sc(NC(=O)CSc3ncn[nH]3)c2C#N)C1 (centres undefined)
    x | i | -4.6%
> Cc1cnc(C(=O)Nc2nccs2)cn1
    x | i | -0.3%
> COc1ccc(NC(=O)c2cccs2)cc1O
    -0.55 | i | 6.9%
> COc1cccc(C2CC(C(F)(F)F)n3ncc(C(=O)NCc4ccco4)c3N2)c1 (centres undefined)
    -0.59 | i | 13%
> CCOC(=O)N1CCN(Cc2nc3c(c(=O)n(C)c(=O)n3C)n2CCC(C)C)CC1
    -0.95 | i | 1.6%
> CCN(CC)S(=O)(=O)c1ccc(-c2nnc(SCC(=O)Nc3ccc(OC)cc3)o2)cc1
    x | i | -0.2%
> O=C(CSCCSCC(=O)c1ccco1)c1ccco1
    -0.94 | i | -2.3%
> C=CCn1c(SCC(=O)NCc2ccccc2)nnc1-c1ccccc1O
    0.92 | i | -2.9%
> O=c1cc(NCCO)c2ccccc2o1
    x | i | 0.4%
> O=c1c2ccccc2nc(-c2ccccc2)n1CCCN1CCOCC1
    -0.54 | i | 0.2%
> COC(=O)c1ccc(NC(=O)CS(=O)(=O)Cc2ccccc2)cc1
    0.84 | i | 0.8%
> C=CCn1c(SCC(=O)NCC2CCCO2)nc2scc(-c3ccco3)c2c1=O (centres undefined)
    -0.65 | i | -9.2%
> CN1c2ccccc2N(C)C1c1ccc2c(c1)OCO2
    -0.61 | i | 4.9%
> Oc1ccccc1C(=S)N1CCCCC1
    -0.05 | i | 2.2%
> COc1ccccc1Oc1nc2c(c(=O)n(Cc3ccccc3F)c(=O)n2C)n1C
    -0.27 | i | -3.1%
